Screening data deposited in PubChem by SRMLSC.
H5N1 CPE – MDCK cell protection from H5N1 avian flu. 96,000 tested, 0.07% active. AID 740, 2007. cytopathic effect, luminescence, 72 h; stronger effect = higher value; no value below 0 was filed and about half of the inactive calls have no number; reference of the scale not given here. inhibition, % at 50 µM; in the data active = inhibition above about 25%
* hit, by the source's call. A portion of the library. The share of hits here may be higher or lower than overall.

Screening CC(C)c1ccc(S(=O)(=O)N2CCN(CC(=O)Nc3ccc4c(c3)OCO4)CC2)cc1 returned H5N1 CPE 2.5.
`COCc1cc(C)nc(SCC(=O)Nc2cccc(C)c2C)c1C#N` gave H5N1 CPE 0.3.
Screening O=C(c1ccco1)N1CCN(C(=O)c2ccccc2OC(=O)C23CC4CC(CC(C4)C2)C3)CC1 returned H5N1 CPE 0.0.
Screening CC(CN1CCCCC1)OC(=O)c1ccc(Cl)cc1Cl (stereo unspecified) returned H5N1 CPE 0.5.
Cc1ccc(S(N)(=O)=O)cc1NC(=O)C1CC2CCC1C2 (stereo unspecified) was read as H5N1 CPE inactive.
`CCOC(=O)C(C)On1c(-c2cccc(Cl)c2)nc2ccc([N+](=O)[O-])cc21` (stereo unspecified) gave H5N1 CPE 3.2.
`Cc1cc(NC(=O)CSc2nnc(Nc3ccccc3)s2)no1` gave H5N1 CPE inactive.
CC1Cc2ccccc2N1S(=O)(=O)c1cccs1 (stereo unspecified) was read as H5N1 CPE inactive.
CCOC(=O)N1CCC(N2Cc3cccc(C(=O)NC(C)c4ccc5c(c4)OCCO5)c3C2=O)CC1 (stereo unspecified) was read as H5N1 CPE inactive.
For O=C(CCN1CCCCCC1)Nc1cccc(Cl)c1 the results were H5N1 CPE inactive.
For COc1ccc(-c2cc(C(=O)N/N=C/c3ccc(OC)c(COCC(F)(F)C(F)F)c3)c3ccccc3n2)c(OC)c1 the results were H5N1 CPE 1.8.
Screening CCOC(=O)CCC(=O)NCc1ccc2c(c1)cc(C)n2C returned H5N1 CPE 1.1.

The last 6 entries of the part above open the next one:
`Cc1cc(NC(=O)CSc2nnc(Nc3ccccc3)s2)no1` gave H5N1 CPE inactive.
CC1Cc2ccccc2N1S(=O)(=O)c1cccs1 (stereo unspecified) was read as H5N1 CPE inactive.
CCOC(=O)N1CCC(N2Cc3cccc(C(=O)NC(C)c4ccc5c(c4)OCCO5)c3C2=O)CC1 (stereo unspecified) was read as H5N1 CPE inactive.
For O=C(CCN1CCCCCC1)Nc1cccc(Cl)c1 the results were H5N1 CPE inactive.
For COc1ccc(-c2cc(C(=O)N/N=C/c3ccc(OC)c(COCC(F)(F)C(F)F)c3)c3ccccc3n2)c(OC)c1 the results were H5N1 CPE 1.8.
Screening CCOC(=O)CCC(=O)NCc1ccc2c(c1)cc(C)n2C returned H5N1 CPE 1.1.
`O=C1OCC/C1=C\c1ccccc1O` gave H5N1 CPE inactive.
`CCC(=O)c1ccc(OCC(O)CN(C)C2CCCCC2)cc1` (stereo unspecified) gave H5N1 CPE 0.5.
For Cc1ccc(-n2nc(C(=O)O)nc2-c2ccccc2)cc1 the results were H5N1 CPE inactive.
O=C(CCN1CCN(c2ccccc2)CC1)Nc1ccc(OCc2ccccc2)cc1 was read as H5N1 CPE inactive.
`CCOC(=O)CNC(=O)C(Cc1ccccc1)NS(=O)(=O)c1cccs1` (stereo unspecified) gave H5N1 CPE 1.3.
Screening Clc1ccc(Sc2ccc(/C=N/n3cnnc3)o2)cc1 returned H5N1 CPE 0.1.
For CC1(c2ccccc2)CC(C)(C)N2C(=O)C3(C(C#N)=C(N)Oc4cc(O)ccc43)c3cccc1c32 (stereo unspecified) the results were H5N1 CPE 16.3.
`Cc1cc(C)nc(N2C(=O)CC(C(C)c3ccccc3)C2=O)n1` (stereo unspecified) gave H5N1 CPE 0.3.
For CC(=NCc1ccc(F)cc1)c1c(O)n(C)c(=O)n(C)c1=O the results were H5N1 CPE inactive.
`Cc1ccc2c(c1)nnn2C1CCN(CC(=O)Nc2ccc3c(c2)OCCO3)CC1` gave H5N1 CPE inactive.
COc1cc(SC)ccc1C(=O)NCC1CCCO1 (stereo unspecified) was read as H5N1 CPE 0.8.
`CCN1C(=O)/C(=C2\SC(N3CCCCC3)=NC2=O)c2ccccc21` gave H5N1 CPE inactive.
Screening Cn1cnnc1SCc1ccc(-c2ccc(Br)cc2)o1 returned H5N1 CPE inactive.
Screening Cn1nc(-c2ccccc2)c(COC(=O)c2cccc(Cl)c2)c1S(=O)(=O)c1ccccc1 returned H5N1 CPE 3.0.
For CCS(=O)(=O)N1CCC(c2nc(-c3ccc(C(F)(F)F)cc3)no2)CC1 the results were H5N1 CPE 0.3.
Screening CC1CCCCN1C(=O)C1CC(c2ccc(F)cc2)=NO1 (stereo unspecified) returned H5N1 CPE 0.2.
`Cc1c(C(N)=O)sc2nc(-c3ccccc3)cn12` gave H5N1 CPE 2.2.
`CC(=O)Nc1ccc(NC(=O)CN(c2ccc(F)cc2)S(=O)(=O)c2ccc3c(c2)OCCO3)cc1` gave H5N1 CPE 1.0.
CCOC(=O)c1nn(-c2cccc(C)c2)cc1C(=O)c1ccccc1 was read as H5N1 CPE 1.1.
O=C(COc1ccc(Cl)cc1Cl)N(Cc1ccco1)C1CCS(=O)(=O)C1 (stereo unspecified) was read as H5N1 CPE inactive.
COCCN(CC(=O)NCc1ccccc1)C(=O)CCC(=O)Nc1nccs1 was read as H5N1 CPE 0.1.
For CCOC(=O)c1c(-c2ccc(C)o2)csc1NC(=O)CSc1nnc(C)s1 the results were H5N1 CPE 0.5.
`O=C(N1CCOCC1)N(Cc1cccs1)C1CCCC1` gave H5N1 CPE 1.8.
Screening COc1ccc(/C=C2\C(=O)NCC(=O)N2Cc2ccccc2)cc1 returned H5N1 CPE inactive.

Pulled by structure from above:
COCCN(CC(=O)NCc1ccccc1)C(=O)CCC(=O)Nc1nccs1 was read as H5N1 CPE 0.1.
`O=C(N1CCOCC1)N(Cc1cccs1)C1CCCC1` gave H5N1 CPE 1.8.
Screening COc1ccc(/C=C2\C(=O)NCC(=O)N2Cc2ccccc2)cc1 returned H5N1 CPE inactive.
For CCOC(=O)c1c(-c2ccc(C)o2)csc1NC(=O)CSc1nnc(C)s1 the results were H5N1 CPE 0.5.
Screening CC1CCCCN1C(=O)C1CC(c2ccc(F)cc2)=NO1 (stereo unspecified) returned H5N1 CPE 0.2.
`Cc1c(C(N)=O)sc2nc(-c3ccccc3)cn12` gave H5N1 CPE 2.2.
Screening Cn1cnnc1SCc1ccc(-c2ccc(Br)cc2)o1 returned H5N1 CPE inactive.

Going on with the list.
For CC(Cc1ccccc1)[n+]1cc(/N=C(\[O-])Nc2ccccc2)on1 (stereo unspecified) the results were H5N1 CPE inactive.
For COc1ccc(N2C(=O)CC(N3CCN(c4ccc(S(C)(=O)=O)cc4)CC3)C2=O)cc1 (stereo unspecified) the results were H5N1 CPE inactive.
For CCOC(=O)c1csc(NC(=O)c2ccc(OC)c(OC)c2)n1 the results were H5N1 CPE inactive.
For CC(C)CCOc1ccc(C(=O)C[N+]2(C)CCOCC2)cc1 the results were H5N1 CPE inactive.
Screening O=C(NCc1ccco1)c1cc2nc(-c3cccs3)cc(C(F)(F)F)n2n1 returned H5N1 CPE inactive.
O=C(NCc1cccs1)c1ccccc1F was read as H5N1 CPE 0.6.
`Cc1ccc(/C=N\NC(=O)c2cc(OCC(F)(F)F)ccc2OCC(F)(F)F)cc1` gave H5N1 CPE inactive.
Screening COc1ccccc1-c1cc(C(F)(F)F)nc(S(=O)(=O)CCCC(=O)N2CCOCC2)n1 returned H5N1 CPE inactive.
CCOC(=O)Nc1ccc(C)cc1C was read as H5N1 CPE 0.1.
For NC(=O)CSc1nnnn1-c1ccc(OC(F)(F)F)cc1 the results were H5N1 CPE inactive.
Screening COc1ccc(CNS(=O)(=O)c2ccc(C3CNC(=O)C3)cc2)cc1 (stereo unspecified) returned H5N1 CPE inactive.
For COc1nc(N)nc(N2CCOCC2)n1 the results were H5N1 CPE inactive.
Screening CC1(C)Cc2ccccc2-c2nc(NCCCO)n(-c3ccccc3)c(=O)c21 returned H5N1 CPE 2.7.
`COc1cc(C)c(S(=O)(=O)N2CCCC2)cc1C` gave H5N1 CPE 2.0.
Screening CCCOc1ccc(-c2cnc(N)s2)cc1 returned H5N1 CPE inactive.
Screening O=C(O)CCc1ccc(-c2ccc(F)cc2)n1CC(=O)O returned H5N1 CPE 0.4.
For COC(=O)c1cc(CC(=O)c2ccc(O)cc2O)c(C)o1 the results were H5N1 CPE inactive.
Screening CCOC(=O)c1cnc(SC)nc1Oc1cccc(NS(=O)(=O)c2ccccc2)c1 returned H5N1 CPE inactive.
`Cc1cc(C)c(S(=O)(=O)N(CC(=O)NCc2cccnc2)C2CCCCC2)c(C)c1` gave H5N1 CPE 1.1.
Screening CCn1cc(C(=O)N2CCN(c3cccc(Cl)c3)CC2)c2cc(OC)c(OC)cc2c1=O returned H5N1 CPE inactive.
Screening CCOC(=O)C1CCN(C(=O)N(C)C)CC1 returned H5N1 CPE 0.4.
Cc1nnc(SCCn2c(N3CC(C)CC(C)C3)nc3c2c(=O)[nH]c(=O)n3C)s1 (stereo unspecified) was read as H5N1 CPE 2.6.
For CC12CCC(C(=O)Nc3cccc4ccccc34)(C1Br)C2(C)C (stereo unspecified) the results were H5N1 CPE inactive.
`Cc1[nH]n(-c2cccc(Cl)c2)c(=O)c1-c1ccccc1` gave H5N1 CPE inactive.

Structural class: the entries above containing a COOH group (two)
For Cc1ccc(-n2nc(C(=O)O)nc2-c2ccccc2)cc1 the results were H5N1 CPE inactive.
Screening O=C(O)CCc1ccc(-c2ccc(F)cc2)n1CC(=O)O returned H5N1 CPE 0.4.

New compounds follow:
COc1ccccc1N1CCN(Cc2nc(N)nc(Nc3ccccc3)n2)CC1 was read as H5N1 CPE inactive.
For O=C(c1ccco1)n1nc(-c2ccccc2)nc1NCc1ccco1 the results were H5N1 CPE 1.6.
`CCN(CCNC(=O)C1CCN(S(=O)(=O)CC)CC1)c1ccccc1` gave H5N1 CPE inactive.
`CC12C(=O)N(c3cccc4cccnc34)C(=O)C1C1C=CC2C1` (stereo unspecified) gave H5N1 CPE 1.5.
For O=C(NC1CC1)C1CCC(=O)N1C1CCCC1 (stereo unspecified) the results were H5N1 CPE inactive.
CCCCn1c(N)c(N(CCC(C)C)C(=O)CSc2nnc3ccccn23)c(=O)[nH]c1=O was read as H5N1 CPE inactive.
For COc1cc(C2Nc3cc(Cl)c(S(N)(=O)=O)cc3S(=O)(=O)N2)ccc1OCc1ccccc1 (stereo unspecified) the results were H5N1 CPE 0.2.
`CN1C(=O)SC(Nc2ccc(F)cc2)C1=O` (stereo unspecified) gave H5N1 CPE inactive.
O=C(N1CCOCC1)N1CCN(CC(O)COc2ccc3ccccc3c2)CC1 (stereo unspecified) was read as H5N1 CPE inactive.
For CC(NC(=O)Nc1ccc(O)cc1)(C(F)(F)F)C(F)(F)F the results were H5N1 CPE inactive.
`Cc1cccc(NC(=S)NNC(=O)c2sccc2C)c1` gave H5N1 CPE 2.0.
CC(=O)Nc1ccc(OC(F)(F)C(F)C(F)(F)F)c(NC(C)=O)c1 (stereo unspecified) was read as H5N1 CPE inactive.
Screening Cc1cc(C)nc(NC2=NCC(=O)N2c2ccc(Cl)cc2)n1 returned H5N1 CPE inactive.
`CCCC(=O)N1CCN(c2ccc(NC(=O)c3cc4ccccc4o3)cc2)CC1` gave H5N1 CPE 1.2.
Screening CSc1ccc(C(=S)N2CCN(CCO)CC2)cc1 returned H5N1 CPE 0.4.
`CC(C)Oc1cccc(C(=O)NC(=S)Nc2ccc(Cl)c(C(=O)O)c2)c1` gave H5N1 CPE inactive.
O=C(CSc1nnc(C2CCCCC2)o1)N1CCCCC1 was read as H5N1 CPE 1.7.
CN1C2C=C3C(C#N)=C(N)C(C#N)(C#N)[C@@H](c4cccs4)C3C1CC2 (stereo partly specified) was read as H5N1 CPE 0.9.
CCCC(=O)N1CCN(c2ccc(NC(=O)c3cc4ccccc4o3)cc2Cl)CC1 was read as H5N1 CPE inactive.
For CCOc1ccc(S(=O)(=O)Nc2cccc(N(C)S(C)(=O)=O)c2)cc1 the results were H5N1 CPE inactive.
O=C(Nc1ccc2c(c1)nc1n2CCN(Cc2ccccc2)C1)NC1CCCCC1 was read as H5N1 CPE inactive.
`O=C(Cn1cnc2ccccc2c1=O)NCCC(=O)N1CCC2(CC1)OCCO2` gave H5N1 CPE inactive.
For COCCOC(=O)C1=C(C)N=C2SCCC(=O)N2C1c1ccc(C(=O)OC)cc1 (stereo unspecified) the results were H5N1 CPE 1.8.
Nn1c(SCC(=O)NC(=O)NCc2ccccc2)nnc1C1CC1 was read as H5N1 CPE inactive.

Molecules above that contain bromine:
Screening Cn1cnnc1SCc1ccc(-c2ccc(Br)cc2)o1 returned H5N1 CPE inactive.
For CC12CCC(C(=O)Nc3cccc4ccccc34)(C1Br)C2(C)C (stereo unspecified) the results were H5N1 CPE inactive.

Next entries
Cc1cccc(NC(=O)C2CCCN(S(=O)(=O)c3c(C)nn(C)c3C)C2)n1 (stereo unspecified) was read as H5N1 CPE 1.6.
O=C(O)CCC(=O)N1CCc2cc(S(=O)(=O)Nc3ccc4c(c3)OCCO4)ccc21 was read as H5N1 CPE 0.7.
CC(C)CCn1c(Oc2ccccc2Cl)nc2c1c(=O)n(C)c(=O)n2C was read as H5N1 CPE 1.6.
Cc1cccn2cc(-c3ccc(S(=O)(=O)N4CCOCC4)cc3)nc12 was read as H5N1 CPE 0.2.
Screening CC1(C)NC(=O)N(CC(O)Cn2nnc3ccccc32)C1=O (stereo unspecified) returned H5N1 CPE 0.4.
Screening O=C(NCc1ccco1)c1sc2cccc(F)c2c1Cl returned H5N1 CPE inactive.
For COc1ccc(CCNC(=O)CSc2nc(N)c(C#N)c(-c3cccs3)c2C#N)cc1OC the results were H5N1 CPE 2.3.
Screening CCC(C)Nc1nc2c(c(=O)[nH]c(=O)n2C)n1CCC(C)C (stereo unspecified) returned H5N1 CPE inactive.
CCCCCCNC(=O)C(C#N)c1nc2ccccc2nc1N1CCOCC1 (stereo unspecified) was read as H5N1 CPE inactive.
Cc1ccccc1OCCCC(=O)Nc1nccs1 was read as H5N1 CPE inactive.
`Cc1ccc(C(=O)Nc2cccc(N(C)S(C)(=O)=O)c2)cc1S(=O)(=O)Nc1ccccc1` gave H5N1 CPE 2.9.
`COc1ccccc1C1CN(c2ccccc2)N=C1c1cccs1` (stereo unspecified) gave H5N1 CPE 3.3.
`Cc1cccc(-n2c(SCC(N)=O)nnc2-c2ccccn2)c1C` gave H5N1 CPE 0.5.
For Cc1cc(N2CCN(S(=O)(=O)c3ccc4c(c3)OCCO4)CC2)n2ncnc2n1 the results were H5N1 CPE 1.4.
`COc1ccc(CNc2nc(SC)n[nH]2)cc1OC` gave H5N1 CPE inactive.
